Bioassay records: PubChem BioAssay, PCMD
Biofilm kill mix: mixture kills Candida albicans biofilm cells; 120,000 tested, 0.02% active; inhibition, % at 7.6 µM; AID 1242; C. albicans biofilm persisters + clotrimazole, fluorescence viability; primary screen in compound mixtures of four per well;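 active means inhibition above 30.3% in the primary screen of four-compound pools, then above 30% when the compound was retested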;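 further: compounds exposed to preformed 24 h biofilms for 48 h; the number belongs to the whole pool; some results filed as inactive read as strong as hits; inactives centre near 12; 0% = biofilm with clotrimazole alone and 100% = kill control; retested singly at about 60 µM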
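Test system: C. albicans CAF4-2 wild-type biofilms; buffer or medium: RPMI/MOPS medium, pH 7.0; schedule: 24 h biofilm formation, then 48 h compound exposure, 37 °C; detection: Alamar Blue fluorescence; measure: percent inhibition of biofilm viability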
An asterisk follows results filed as active. An excerpt. The share of hits here may be higher or lower than overall.

Compound	Biofilm kill mix
CCOC(=O)c1ccc(NC(=O)CNS(=O)(=O)c2ccccc2)cc1	12.2
CCC1=Nc2cc(C(=O)NCc3ccco3)ccc2Sc2ccccc21	13.3
CC(C)c1cc(C(=O)O)c2cnn(C(C)C)c2n1	21.6
CCn1c(SCC(=O)N/N=C/c2ccc(C)o2)nnc1-c1ccc(C)cc1	18.4
CCN(CC)c1ccc(/C=N/N2C(=O)c3ccccc3C2=O)c(O)c1	7.7
CCOc1ccc(Br)cc1S(=O)(=O)Nc1cccc(S(=O)(=O)N(C)c2ccccc2)c1	11.2
CC1CCN(C(c2nnnn2CCc2ccccc2)C(C)C)CC1 (centres undefined)	17.9
S=C(NCc1ccco1)Nc1ccccc1Cl	10.2
COc1ccc(OC)c(Cc2nnc(CCC(=O)NC3C4CC5CC(C4)CC3C5)o2)c1 (centres undefined)	20.4
CCCC(=O)Nc1sc(C)c(-c2ccc(OC)cc2)c1C#N	12.4
NNC(=S)Nc1cccc(Cl)c1	28.6
CN=C1c2cc3cc(OC)ccc3n2CCN1C	7.4

Compound	Biofilm kill mix
Cc1ccc(NC(=O)CSc2cccc[n+]2[O-])c([N+](=O)[O-])c1	7.3
CCCCCCCNC1=CC(=O)CC(c2ccco2)C1 (centres undefined)	11.1
COc1ccccc1NC1=C(Cl)C(=O)OC1OC(=O)c1ccco1 (centres undefined)	8.0
CNC(=O)CN(c1ccc(C23CC4CC(CC(C4)C2)C3)cc1)S(C)(=O)=O	19.6
CCn1ccnc1CN(C)C(=O)CC1C(=O)NCCN1Cc1c(F)cccc1Cl (centres undefined)	-5.1
CCN(CCn1cccn1)C(=O)CCc1nnc(CCc2ccccc2OC)o1	22.9
Cc1ccc(-c2cc(C(=O)Nc3nccs3)c3ccccc3n2)o1	-6.2
CCc1ccc(NC(=O)C2(C)Cc3ccccc3C(=O)O2)cc1 (centres undefined)	6.6
CCCC(=O)N/C(N)=N/c1nc(C)c2ccccc2n1	10.6
O=C1CCN(Cc2nc(-c3ccc(Cl)cc3)no2)CCN1	15.0
Nc1c(NCc2ccccc2)c(=O)c1=O	14.6
Cc1cc(C(=O)COC(=O)c2ccc[nH]c2=O)c(C)n1C1CC1	14.1

Compound	Biofilm kill mix
FC(F)Oc1ccc(/C=N/N2CCCCC2)c(OC(F)F)c1	6.3
CSc1ccc(C2CC(=O)Nc3nc(SC)[nH]c(=O)c32)cc1 (centres undefined)	11.8
Cc1ccc(S(=O)(=O)NCC2NCCc3ccccc32)cc1 (centres undefined)	9.7
Cc1ccc(C(=O)c2cc(C)sc2N)cc1	19.3
COc1cc(C2OC(c3cc(OC)c(OC)c(OC)c3)C(C)C2C)cc(OC)c1OC (centres undefined)	11.1
Cc1ccc(NC(=O)C(=O)NCc2ccc(/C=N/NC(=O)c3c(C)nc4cc(C)ccn34)o2)cc1	15.5
C=CCn1c(O)c(N=NC(=O)CNC(=O)c2ccco2)c2ccccc21	13.5
CC(=O)Oc1ccc(N2C(=O)[C@@H]3[C@H](C2=O)[C@H]2c4ccccc4C=NN2[C@@H]3C(C)=O)cc1	25.1
CCN(CC)S(=O)(=O)c1cc(NC(=O)CNc2c(C)n(C)n(-c3ccccc3)c2=O)ccc1C	7.7
Cc1ccc(/C=N/NC(=O)c2cccnc2)o1	19.0
COCCN1CCn2c(nc3cc([N+](=O)[O-])ccc32)C1	17.6
CSc1ccccc1NC(=O)CN1CC(C)OC(C)C1 (centres undefined)	13.6

Compound	Biofilm kill mix
CCOC(=O)c1cnc2[nH]c3ccccc3n2c1=O	10.9
O=C(O)/C=C/C(=O)OC1CC2CCC1C2 (centres undefined)	24.0
CC1CN(C(=O)c2ccccc2)c2ccccc2NC1=O (centres undefined)	8.8
Cc1ccc(C#CC[N+](C)(C)CC#Cc2ccccc2)cc1	15.6
CCOC(=O)CNc1ccc(OC(F)(F)F)cc1	19.7
Cc1ccc2[nH]c(=O)c(CN(CCCN3CCOCC3)C(=O)Nc3ccc(Cl)cc3)cc2c1	0.4
Cc1ccc(S(=O)(=O)Nc2ccccc2CNc2ncc(Br)cc2Br)cc1	14.6
O=C(ONC1=NCCCCC1)c1cccc([N+](=O)[O-])c1	-1.4
Cc1ccc(SCc2ccc(C(=O)Nc3ccccc3Br)cc2)cc1	-15.2
CC(C)CCN1CCN(Cc2cccn2-c2nccs2)CC1CCO (centres undefined)	8.2
COCCN(C(=S)Nc1ccc(C)cc1)C(C)c1cccnc1 (centres undefined)	20.0
Cc1ccc(NC(=S)c2ccccc2)cc1	18.3

Compound	Biofilm kill mix
Cc1c(Br)c([N+](=O)[O-])nn1CC(=O)Nc1ccccn1	15.9
O=C(NCc1ccc(F)cc1)C1Cc2ccccc2CN1C(=O)c1ccco1 (centres undefined)	13.5
CCOC(=O)N1CCN(C(=O)CSc2ccc(-c3cccnc3)nn2)CC1	9.6
O=C(O)c1csc(-c2cccs2)n1	6.0
CCCCC(c1nnnn1CCOC)N1CCN(Cc2ccccc2)CC1 (centres undefined)	11.9
COc1cccc(C2CC(c3ccccc3)Nc3nc(N)nn32)c1 (centres undefined)	9.7
O=c1cc(-c2ccccc2F)oc2ccccc12	10.4
Cc1ccc(C)c(NC(=O)c2cc(=O)c3ccccc3o2)c1	15.3
O=C1N(Cc2cccnc2)C[C@@H]2C[C@@H](c3ccccc3C#Cc3ccccc3)N3CCC[C@@]123	16.4
O=[N+]([O-])c1ccccc1S(=O)(=O)NCc1ccc(F)cc1	8.9
O=C(O)c1ccc(Cl)c(S(=O)(=O)Nc2ccccc2N2CCOCC2)c1	7.3
O=C(COc1ccccc1F)N1c2ccccc2CCc2ccccc21	7.6

Compound	Biofilm kill mix
CC(C)(C)n1nnnc1C(c1ccc(Cl)cc1)N1CCSCC1 (centres undefined)	6.4
COc1ccccc1N1C(=N)S/C(=C\c2ccc(-c3ccccc3C(=O)O)o2)C1=O	5.8
Cc1c(S(=O)(=O)N2CCN(c3ccccc3)CC2)c(=O)n(C)c(=O)n1C	24.0
Cc1ccc(Nc2ccc(C(F)(F)F)cc2[N+](=O)[O-])cc1	5.7
Cc1ccc(-n2sc3ccccc3c2=O)cc1	19.1
N#CCC(=O)Nc1cc(C(F)(F)F)ccc1N1CCOCC1	9.7
CC(=O)N1CC(c2ccccc2)C(c2ccc(Cl)cc2)=N1 (centres undefined)	17.1
COc1cc(/C=N/NC(=O)c2nc3ccccn3c2C)cc(OC)c1O	18.5
COC(=O)c1ccc(COc2ccc(/C=N/O)cc2OC)o1	-3.2
Cn1c(=O)n(C)c2cc(NS(=O)(=O)c3ccc(F)cc3)ccc21	14.2
O=C(Nc1ccc2c(c1)OCCO2)C1CCN(C(=O)c2ccc(Cl)cc2)CC1	7.5
O=C(c1ccc(F)cc1)C1CCN(S(=O)(=O)c2ccccc2)CC1	-0.5

Compound	Biofilm kill mix
Cc1cc(C(=O)COC(=O)c2ccc3c(c2)NC(=O)CS3)c(C)n1CCc1ccc(Cl)cc1	-4.9
Cc1nc2ccc(NS(=O)(=O)c3ccc(F)cc3)cc2s1	12.1
CC(C)(C)OC(=O)N1CCC[C@H]1c1nnc(SCC(=O)Nc2ccc(Br)cc2)o1	14.8
Fc1ccccc1COc1ccccc1/C=N/Nc1nc(N2CCCC2)nc(N2CCCC2)n1	17.6
CC(C)(C)NC(=O)NC(=O)COC(=O)CNS(=O)(=O)c1ccc(Br)cc1Cl	17.0
O=C(NC1CCSC1=O)c1cccc(Cl)c1 (centres undefined)	-7.2
Cc1ccc(C(=O)NC(O)C(Cl)Cl)cc1 (centres undefined)	16.2
CN(C)S(=O)(=O)Nc1ccccc1F	1.7
CCc1ccc(-n2c(C)n[nH]c2=S)cc1	11.1
CCOc1ccc2sc(NS(=O)(=O)c3ccc(N)cc3)nc2c1	16.7
CCCC(=O)OCCNc1cc(SCc2ccco2)c2nonc2c1[N+](=O)[O-]	13.4
N#CNC(=Nc1cccc(F)c1)SCc1ccccc1F	20.3

Compound	Biofilm kill mix
CC12CN3CCN(CC(C3)/C1=N\N=C1/C3CN4CCN(C3)CC1(C)C4)C2	10.0
CCOC(=O)Cc1csc(NC(=O)CSc2nnnn2-c2ccc(C)c(C)c2)n1	9.5
Cc1ccc(/C=N/NC(=O)c2ccc3c(c2)OCCO3)s1	17.4
CCC(C)(C)n1nnnc1C(c1ccc(F)cc1)N1CCC(C(N)=O)CC1 (centres undefined)	22.3
CCn1cc([N+](=O)[O-])c(C(=O)N2N=C3/C(=C/c4cccs4)CCCC3C2c2cccs2)n1 (centres undefined)	6.1
O=C(O)c1cccc(N2C(=O)/C(=C/c3ccc([N+](=O)[O-])cc3)C=C2c2ccccc2)c1	19.9
C#CC1(NC(=O)N(C)C)CCCCC1	13.8
CCCc1ccc(S(=O)(=O)Nc2ccc(C)c(NS(C)(=O)=O)c2)cc1	5.3
CCOC(=O)CSC1=N/C(=C\c2cc(OC)c(OC)c(OC)c2)C(=O)N1C	17.1
CC(C)(C)CNc1cc(N2CCOCC2)ccc1[N+](=O)[O-]	20.5
CC(=O)c1ccc(NC(=O)C(C)N(C)CC(=O)Nc2ccc(N3CCOCC3)cc2)cc1 (centres undefined)	-5.7
CCOC(=O)Cc1csc(NC(=O)CSc2cc(Cl)ccc2Cl)n1	10.2

Compound	Biofilm kill mix
O=C(NC(Nc1ccccn1)C(Cl)(Cl)Cl)c1ccccc1 (centres undefined)	-9.1
CC1(C)Cc2c(c(-c3ccco3)nc3sc4c(NCCO)ncnc4c23)CO1	8.4
Cc1cc(C(=O)COC(=O)CC2Sc3ccccc3NC2=O)c(C)n1-c1ccccc1 (centres undefined)	12.2
COc1ccc(/C=N/NC(=O)c2cc(-c3ccc4c(c3)OCO4)n[nH]2)cc1OC	19.3
CC1CCN(C(=O)c2ccc(-n3cnnn3)cc2)CC1	11.8
N#Cc1c(C(F)(F)F)cc(-c2ccc(F)cc2)nc1SCC(=O)O	22.6
CN(C)/C=C1/NC(=S)NC1=O	17.8
CC1/C(=N/O)CC(c2ccccc2)N(C)C1c1ccccc1 (centres undefined)	5.7
CN1C(=O)/C(=C/c2ccccc2OCc2ccc(F)cc2)N(C)C1=S	12.4
N#C/C(=C(/O)COc1ccc(Cl)cc1)c1nc2ccccc2s1	10.4
COC(=O)c1ccc(CN2CCN(C3CCCCC3)C(CCO)C2)cc1 (centres undefined)	16.5
CC(NC(=O)c1cccs1)C(c1cccs1)N1CCOCC1 (centres undefined)	8.5

Compound	Biofilm kill mix
CCc1nn(C)c2c(=O)c(=O)c2n(C)[nH]1	8.5
O=C(Nc1ccccc1-c1nnc(SCc2ccc(Cl)cc2Cl)o1)c1ccccc1	13.2
Cc1ccccc1Nc1nc(N)nc(CCl)n1	14.1
COc1ccc(/C(C)=N/Nc2cc(C(F)(F)F)ccc2Cl)c(OC)c1	7.7
Cc1cc(C(=O)N/N=C/c2sccc2C)no1	7.4
Cc1ccc(NC(=S)N=Nc2c(O)[nH]c3ccccc23)cc1	12.2
CC(C)(C)c1ccc(NC(=S)NCCc2ccccn2)cc1	13.4
CC(C)OP(=O)(OC(C)C)C(O)c1ccc(N(C)C)cc1 (centres undefined)	8.3
CC(=O)Nc1ccc(NC(=O)CCC(=O)OCC(=O)c2ccc(C)c([N+](=O)[O-])c2)cc1	9.4
CC(C)S(=O)(=O)c1csc(NC(=O)Nc2cc(Cl)ccc2Cl)c1Cl	12.7
Cc1ccc(/C=N/NC(=O)c2cc(C3CC3)nc3ccccc23)o1	19.9
Cc1ccc(NC(=S)N2CCSC2c2cccs2)cc1 (centres undefined)	7.4

Compound	Biofilm kill mix
O=C(Cn1cnc2ccccc2c1=O)N/N=C/c1ccc(Br)cc1	12.2
CC(C)(C)c1ccc(/C=C/C(=O)Nc2nncs2)cc1	13.0
Cc1ccc2nc(Cl)c(C3CC(c4cccs4)=NN3S(C)(=O)=O)cc2c1 (centres undefined)	16.5
O=S(=O)(c1ccc(F)cc1)N1CCN=C1SCc1cccnc1	19.6
CC1CN(C(=S)SCC(=O)c2ccc(Cl)cc2)CC(C)O1 (centres undefined)	10.5
Cc1ccccc1-n1nnnc1SCC(=O)NCC1CCCO1 (centres undefined)	12.8
CC(=O)c1ccc(-n2nncc2-c2ccc([N+](=O)[O-])cc2)cc1	7.6
O=C(Nc1ccc(Cl)c([N+](=O)[O-])c1)ONC1=NCCCCC1	18.0
COc1c(Cl)cc(Cl)cc1/C=C/C(=O)c1ccc(NC(=O)c2cccs2)cc1	21.7
CN1CCN(c2ccc(NC(=O)c3ccc4c(c3)OCCO4)cc2)CC1	13.1
C=CCc1cc(Cl)ccc1OCCN1CC(C)OC(C)C1 (centres undefined)	-1.1
CC(=O)Nc1ccc(NS(=O)(=O)c2ccc(C)cc2)c([N+](=O)[O-])c1	16.5
